Screening data (PubChem BioAssay)
Menin MLL FP FL: qHTS Assay for Inhibitors Targeting the Menin-MLL Interaction in MLL Related Leukemias: Competition With Fluorescein Labeled MLL-derived Peptide. Fluorescence polarization, fluorescein-MLL peptide displacement from menin. FP activity change, % at 61.4 µM. 290,000 tested, under 10 active. AID 1766, 2009; inconclusive = falling polarisation curve, or a change in total fluorescence; inactive = total fluorescence flat and polarisation flat or rising; no compound was filed as active; the % refers to the polarisation; negative = inhibition;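 further: % of control where 0% means no effect; inhibitors lower the polarisation; unlabelled MLL peptide was the positive control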
TRPML1 ag: qHTS for Agonists of the Human Mucolipin Transient Receptor Potential 1 (TRPML1). Mucolipin-1 (Homo sapiens), Q9GZU1. TRPML1-expressing cells, Ca2+ dye fluorescence, FDSS; host cell line not named in the record; reference of the full effect not given here. activation, % (test concentration not listed). hit rate 0.12% among 410,000. AID 624414, 2012; in the data active = activation above about 50%; inconclusive = about 30% to 50%; inactive = below about 30%; further: 0% is about no effect; the text of the record puts the active cut at 80%
Target sequence (Q9GZU1 whole entry, looked up): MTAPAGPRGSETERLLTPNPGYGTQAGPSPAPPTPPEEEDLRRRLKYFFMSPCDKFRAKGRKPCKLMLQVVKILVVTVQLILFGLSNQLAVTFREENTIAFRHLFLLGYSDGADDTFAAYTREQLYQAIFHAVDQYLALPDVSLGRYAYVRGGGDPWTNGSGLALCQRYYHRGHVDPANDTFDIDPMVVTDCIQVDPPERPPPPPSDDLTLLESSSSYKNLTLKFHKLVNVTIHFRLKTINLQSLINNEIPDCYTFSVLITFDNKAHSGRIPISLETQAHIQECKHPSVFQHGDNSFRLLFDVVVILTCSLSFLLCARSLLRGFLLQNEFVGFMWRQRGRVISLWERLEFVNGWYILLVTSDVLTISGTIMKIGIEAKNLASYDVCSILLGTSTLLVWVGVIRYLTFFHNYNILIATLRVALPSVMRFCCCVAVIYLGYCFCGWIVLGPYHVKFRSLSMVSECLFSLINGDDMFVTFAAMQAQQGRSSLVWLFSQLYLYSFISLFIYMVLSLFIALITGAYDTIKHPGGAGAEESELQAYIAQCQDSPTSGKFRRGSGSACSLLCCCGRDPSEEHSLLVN
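Calcium fluorescence on an FDSS kinetic reader gave the read-out. Tet-induced TRPML1-DL cells were plated overnight, dye-loaded (Ca8 with quencher, 45-90 min, room temperature, dark), then read 110 s after compound addition, and again 110 s after 4uM final 54-4 (EC80).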
ClpP mod: qHTS Assay for Activators of ClpP; ATP-dependent Clp protease proteolytic subunit (Bacillus subtilis (strain 168)), P80244; purified B. subtilis ClpP, FRET peptide cleavage, 20 min; Potency, µM (highest dose often 57.5 µM), inactives show top-dose activity change, negative = active; hit rate 1.9% among 340,000; AID 651965, 2013; active = well fitted falling curve with a large enough effect; inconclusive = small, poorly fitted or top-dose-only effect; inactive = no such curve, though single readings can be large or run the other way; further: potency means the concentration at half of the fitted maximal effect; the source files actives as falling curves though it sought activators and does not explain the sign; nearly all actives have a fitted effect of over 65% in size; many hits overshoot -100%
Target sequence (P80244 whole entry, looked up): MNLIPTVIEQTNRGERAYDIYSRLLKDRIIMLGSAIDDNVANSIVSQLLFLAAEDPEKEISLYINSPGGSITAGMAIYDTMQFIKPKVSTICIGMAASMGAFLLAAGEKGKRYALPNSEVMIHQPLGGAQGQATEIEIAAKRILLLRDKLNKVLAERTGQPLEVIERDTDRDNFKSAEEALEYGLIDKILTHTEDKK
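FRET quenching reversal measured ClpP activation: 10 microg/mL B. subtilis ClpP at pH 8 with the FRET-FV decapeptide, read at 430 nm after 320 nm excitation. The 20-min minus 0-min signal was scaled between DMSO/no-enzyme wells and ADEP (5.8 microM final).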
gsp antagonist: qHTS for Antagonists of gsp, the Etiologic Mutation Responsible for Fibrous Dysplasia/McCune-Albright Syndrome: qHTS; Potency, µM (highest dose often 76.9 µM), for the others: top-dose activity change, negative = inhibition, actives largely listed as inhibitors; hit rate 0.4% among 340,000; gsp-mutant cells, cAMP HTRF, 30 min; control for the full effect not named in the record; active = falling curve of any shape with a large fitted effect; inconclusive = falling curve, mostly with a smaller effect; inactive = flat or rising curve; cell line not stated here;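 further: intracellular cAMP measured with PDE inhibitor Ro 20-1724 present during compound exposure; potency means the concentration at half of the fitted maximal effect; on the % scale 0 is the no-effect control and ±100 the full control effect; nearly all actives have a fitted effect of over 65% in size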
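Measurement of cellular cAMP by homogeneous time-resolved fluorescence following a 30 min compound exposure at 37C. The PDE inhibitor […] was present throughout; the assay buffer was DPBS with 0.05% BSA and 0.005% Tween 20.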
gsp agonist: qHTS for Agonist of gsp, the Etiologic Mutation Responsible for Fibrous Dysplasia/McCune-Albright Syndrome: qHTS; hit rate 0.13% among 340,000; gsp mutant cells, cAMP HTRF, 30 min; control for the full effect not named in the record; Potency, µM (doses to about 76.9 µM), inactives show top-dose activation (cAMP increase), usual class: activators; active = well fitted activation curve with a large enough effect; inconclusive = small, poorly fitted or top-dose-only effect, or another doubt; inactive = no such curve, though single readings can be large or run the other way; cell line not stated here;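 further: phosphodiesterase inhibitor Ro 20-1724 added with compounds to block cAMP breakdown; potency means the concentration at half of the fitted maximal effect; nearly all actives have a fitted effect of over 60% in size; about a fifth of the inactives were tested at one dose only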
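Cells stably selected in G418 were plated at 2000/well, grown 16-24 hr, then given compounds in DMSO with the PDE inhibitor […] (300 uM solution added) for 30 min at 37C; cAMP was read by HTRF.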
TRPML1 inh: qHTS for Inhibitors of the Human Mucolipin Transient Receptor Potential 1 (TRPML1) | Mucolipin-1 (Homo sapiens), Q9GZU1 | TRPML1-inducible cells, Ca2+ dye fluorescence, FDSS; stronger effect = lower value; inhibition of EC80 agonist-evoked calcium signal | activity change, negative = inhibition, % (test concentration not listed) | hit rate 0.02% among 390,000; in the data active means activity change below about -50%; inconclusive means about -30% to -50%; inactive means above about -30%;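 further: stimulus is agonist 54-4 at its EC80 concentration; on the % scale 0 is the no-effect control and ±100 the full control effect; compound concentration not given in the record; the text of the record puts the active cut at -80%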
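TRPML1-DL cells, Tet-induced overnight (~16 h, 37 °C) at 1,500 cells/well, were loaded with Ca8 no-wash dye plus quencher for 45-90 min at room temperature. Compounds were pinned during FDSS kinetic reading; agonist 54-4 at EC80 (4 uM final) then added.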
Active calls of the source: *; u = inconclusive; x = no result given; & = joins results of further samples; [ ] = another dose, or the depositor's remark.

SMILES,Menin MLL FP FL,TRPML1 ag,ClpP mod,gsp antagonist,gsp agonist,TRPML1 inh
Cc1ccc(NC(=O)CSc2nc(O)cc(=O)n2C)cc1,5.6,0.3,1.9%,3%,1%,-5
Cc1nnc(SCc2ccccc2Cl)n(N)c1=O,-1.0,0.0,x,3%,7%,10
COc1ccc(S(=O)(=O)N2CCCC2CNC(=O)c2cccc(OC)c2)cc1 (stereo unspecified),x,-0.6,-0.8%,-7%,u,2
Cc1ccc(S(=O)(=O)N2CCCCC2)cc1C(=O)NC1CC(C)(C)NC(C)(C)C1,x,-0.6,x,8%,32%[15.4 µM],-9
O=C(Nc1ccccc1F)c1ccccc1-c1ccccc1,17,0.0,-3.0%,-8%,2%,12
NC1=NC(c2ccccc2)CC(=O)N1 (stereo unspecified),x,-0.2,x,5%,-21%,2
CN(C)c1ccc(C(CNS(=O)(=O)c2ccc(F)cc2F)N2CCOCC2)cc1 (stereo unspecified),x,-0.6,-3.7%,x,x,-5
COc1ccc(OC)c(NC(=O)C2CCN(c3ncccn3)CC2)c1,2.1,0.4,-13%,-1%,-41%[inhibitor],9
Cc1c(Cl)cccc1NC(=O)c1cc2sccc2n1Cc1ccc(F)cc1,x,0.1,-15%,x,x,-14
CN(/N=C/c1ccc(Br)o1)C1=NS(=O)(=O)c2ccccc21,-0.7,-0.5,x,x,-1%[15.4 µM],-1
CCc1nnc(N/N=C/c2ccc(-c3ccc([N+](=O)[O-])cc3)o2)n1N,10,0.0,x,-15%,14%,11
CS(=O)(=O)N(CC(=O)NCc1ccncc1)c1ccc(F)c(Cl)c1,0.7,0.6,x,3%,-16%,2
COC(=O)c1cc(S(=O)(=O)N2CCN(c3cccc(C)c3)C(C)C2)c[nH]1 (stereo unspecified),0.9,-0.5&0.4,1.8%&6.6%,2%,-20%,2&8
CCOc1ccc(OCC)c(NC(=O)C2CCCN(S(=O)(=O)c3c(C)noc3C)C2)c1 (stereo unspecified),-2.2,-0.2,-1.4%,-1%,28%,22
O=C(NCc1ccc(Cl)cc1)c1nccnc1CO,-2.3,-1.0,x,8%,0%[15.4 µM],4
Cc1ccc(NS(=O)(=O)c2cccc(C(=O)NC3CC3)c2)c(C)c1,x,1.5,-2.0%,9%,1%,-7
CC(=O)C1=C(c2ccccc2)OC(N)=C(C#N)C1c1ccccc1F (stereo unspecified),5.8,1.0,-2.2%,2%,-15%,18
CCOC(=O)N1CCN(C(=O)c2ccc(CS(=O)c3cccc(C)c3)o2)CC1 (stereo unspecified),x,-0.3,0.2%,x,4%,-5
CN(C)C1=NC[C@H](Cc2ccccc2)N1CC1CCCCC1,x,-0.1,-3.5%,-9%,x,-8
O=C(CN1C(=O)COc2ccc(S(=O)(=O)N3CCOCC3)cc21)Nc1ccc(F)c(Cl)c1,x,1.9,-1.9%,x,x,-23
O=C(/C=C/c1cccc([N+](=O)[O-])c1)c1cccs1,-0.5,3.5,x,7%,-36%[inhibitor],-1
CCCCCCCCCC(=O)NNC(=O)c1c(O)c2ccccc2n(CC)c1=O,0.4,-0.5,x,7%,-14%[15.4 µM],-2
CCCCSCCCNC(=O)C1CCN(Cc2nc(-c3cccc(Br)c3)oc2C)CC1,x,0.5,2.0%,x,x,-9
Cc1cc(Cl)ccc1NC(=O)Cn1nnc2sc(-c3ccccc3)cc2c1=O,x,3.6,-4.2%,x,x,56
CN(Cc1cccc(F)c1)C(=O)c1ccc(S(=O)(=O)C(F)F)cc1,2.7,1.3,1.5%,8%,-30%,1
CCOC(=O)/C=C1\SC(C)C(=O)N1CC(=O)N(CCC#N)c1ccccc1 (stereo unspecified),x,0.1,-3.2%,-4%,28%,-8
Fc1ccc2c(c1)[C@H]1OCC[C@H]1[C@@H](c1ccco1)N2,0.2,-0.7,-26%,-2%,-35%,-6
Cc1cc(Cl)ccc1NC(=O)CN1CCN(C(=O)c2ccco2)CC1,0.2,0.5,x,8%,-2%[15.4 µM],-12
COc1ccc(CNc2nc3ccccc3n2CCN2CCOCC2)cc1,5.4,-0.4,-0.2%,2%,11%,12
Cc1cc(NC(=O)Nc2nnc(N(C)Cc3ccccc3)s2)ccc1Br,x,5.2,-0.7%,x,x,-12
COC(=O)c1scc(C)c1NC(=O)c1cccc(C#N)c1,0.6,x,0.2%,8%,-12%,x
COc1ccc(C)cc1N(CC(=O)NCCSCc1ccco1)S(=O)(=O)c1ccc(C)cc1,-6.5,0.6,x,-33%,-1%,6
CCCCOc1ccc(NC(=O)Cn2c(=O)ccc3c(C)cc(C)nc32)cc1,-1.3,1.4,38%,17%,2%,22
O=C(Nc1ccc(Cl)c(C(F)(F)F)c1)[C@@H]1CC=C[C@@H]2CCN(C3CC3)C(=O)[C@@H]21,x,-0.5&-0.9,0.2%&1.1%,-13%,x,26
COc1ccc(-n2c(SC3CCOC3=O)nc3ccccc3c2=O)cc1OC (stereo unspecified),0.9,0.9,-3.1%,1%,1%,-11
O=C(NCc1ccccc1)c1cc2ccccc2o1,4.8,-0.3&-1.1,-9.5%&-0.4%,8%,-25%,12&1
COc1ccccc1CN1CC(C(=O)NCc2c(F)ccc(C)c2F)CCC1=O (stereo unspecified),x,0.5,-1.8%,2%,u,-8
O=C(Nc1cccc(Cl)c1)NC1CCCCC1,4.3,-0.7,1.1%,-23%,2%,12
COc1ccc(C)cc1NC(=O)CSc1nnc(-c2ccc(Br)cc2)o1,4.3,1.4,1.0%,-25%,-30%,12
COc1ccc(/C=C/C(=O)OC(C)CN2CCOCC2)cc1 (stereo unspecified),3.1,-0.8,-8.1%,-2%,-16%,-5

3 compounds out of the list, arranged by heavy-atom count, rising:
SMILES,Menin MLL FP FL,TRPML1 ag,ClpP mod,gsp antagonist,gsp agonist,TRPML1 inh
O=C(NCc1ccccc1)c1cc2ccccc2o1,4.8,-0.3&-1.1,-9.5%&-0.4%,8%,-25%,12&1
COc1ccc(C)cc1NC(=O)CSc1nnc(-c2ccc(Br)cc2)o1,4.3,1.4,1.0%,-25%,-30%,12
COc1ccc(-n2c(SC3CCOC3=O)nc3ccccc3c2=O)cc1OC (stereo unspecified),0.9,0.9,-3.1%,1%,1%,-11

New compounds follow:
SMILES,Menin MLL FP FL,TRPML1 ag,ClpP mod,gsp antagonist,gsp agonist,TRPML1 inh
Cn1sccc1=O,x,0.5,-6.0%,-1%,x,28
O=C(CN1CCCCC1)N/N=C/c1cccc(C(F)(F)F)c1,x,-0.5,-0.6%,-1%,1%[15.4 µM],-5
C=CCn1c(=O)c(C(C)=O)cn(N(C)c2ncc(C(F)(F)F)cc2Cl)c1=O,-0.2,1.7,x,x,5%[15.4 µM],17
Cc1[nH]c2ccc(C(=O)NCCCN3CCCCCC3)cc2c1C,x,-0.7,-1.6%,u,10%,-16
Cc1ccc(NC(=O)NCc2nc3ccccc3n2C)cc1,1.9,0.8,x,5%,-41%[inhibitor],57
Cn1cccc1/C=N/n1c(-c2ccc(Cl)cc2Cl)n[nH]c1=S,-2.3,4.3,-1.4%,-15%[15.4 µM],-4%,-14
COc1ccc(C2(CNC(=O)C(=O)Nc3cccc(C(F)(F)F)c3)CCCC2)cc1OC,x,2.4,-5.0%,x,x,-19
Nc1ccc2c(c1)C(=O)c1ccccc1-2,x,2.0,x,-8%,-26%,-2
COc1ccc(N(CC(=O)Nc2ccc(C)cn2)S(=O)(=O)c2c(C)nn(C)c2C)cc1,2.4,0.9,-0.9%,8%,-2%,3
O=C(Nc1ccccc1N1CCOCC1)C1CCCCN1S(=O)(=O)c1ccccc1 (stereo unspecified),0.7,0.3,0.5%,-32%,3%[15.4 µM],31
O=C(CSc1cn(CC(=O)N2CCCC2)c2ccccc12)Nc1ccc(Cl)cc1,x,1.4,-1.0%,x,x,-26
Cc1cnc(NC(=O)CCCNC(=O)c2ccc(Cl)cc2)s1,x,0.6,0.3%,-7%,6%,-3
Cc1ccc(S(=O)(=O)CC(=O)Nc2ccc(S(=O)(=O)Nc3onc(C)c3C)cc2)cc1,-0.3,1.0,-0.8%,1%,5%,7
CCc1nnc(NC(=O)c2ccc(-c3ccc(Cl)cc3)o2)s1,4.0,1.2,u,9%,13%,-4
Cc1ccc(C(=O)N2Cc3ccccc3CC2C(=O)O)cc1 (stereo unspecified),-1.7,0.2,0.0%,-8%,-6%,10
C[C@H](NC(=O)c1ccco1)C(=O)Nc1ccc(C#N)cc1,x,0.0,x,3%,-1%,1
CC1=Nc2cc(C(=O)N3CCCCC3)ccc2Sc2ccc(C)cc21,1.3,1.1&-1.1,0.6%&-2.6%,1%,-22%,0&-6
COc1ccc(-c2[nH]ncc2/C=N\NC(=O)c2ccc(Br)o2)cc1OC,x,0.6,-9.5%,1%,1%,-14
N#CC(C#N)=C1NC2(CCCC2)Cc2ccccc21,7.2,-1.6,-1.2%,-6%,16%,-8
CCC(C)(C)NC(=O)C(c1cccc(OC)c1OC)N(C(=O)CCC(=O)Nc1cc(C)on1)c1ccc2c(c1)OCCO2 (stereo unspecified),-3.2,0.8,x,x,-4%[15.4 µM],4
COc1ccc(N(Cc2cc3cc(OC)ccc3[nH]c2=O)C(=O)c2cccnc2)cc1,-2.1,0.0,u,-14%,-3%,4
CCOC(=O)c1noc2ncn(CC(=O)Nc3cccc(Cl)c3)c(=O)c12,x,0.6,-26%,x,x,2
Cc1ccc(S(=O)(=O)Nc2ccc3c(c2)C(=O)N([C@@H](C)CO)C[C@@H](C)[C@@H](CN(C)S(=O)(=O)c2ccccc2)OCCCC[C@H](C)O3)cc1,x,0.2,0.3%,x,-39%[inhibitor],15
Cc1ccc(S(=O)(=O)N2CCC(c3ccncc3)CC2)c(C)c1,x,3.0,-2.7%,x,x,2
O=C(C1=C[C@@H](c2coc3ccccc3c2=O)C[C@@H](OCc2ccc(CO)cc2)O1)N1CCN(Cc2ccc3c(c2)OCO3)CC1,-0.5,-0.5,-3.3%,-17%,x,-1

Rows are unselected; about 2.1% have a hit in one of these screens.
